Assay outcomes from PubChem BioAssay.
Biofilm kill mix: mixtures killing C. albicans biofilm. C. albicans biofilm persisters + clotrimazole, fluorescence viability; primary screen in compound mixtures of four per well. inhibition, % at 7.6 µM. actives 0.02% (n = 120,000);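 active = inhibition above 30.3% in the primary screen of four-compound pools, then above 30% when the compound was retested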;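 note: compounds exposed to preformed 24 h biofilms for 48 h; the number belongs to the whole pool; some results filed as inactive read as strong as hits; inactives centre near 12; 0% = biofilm with clotrimazole alone and 100% = kill control; retested singly at about 60 µM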
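Test system: C. albicans biofilms. Buffer or medium: RPMI/MOPS medium, pH 7.0. Timing: 48 h compound exposure at 37 °C. Technique: Alamar Blue fluorescence. Evaluation: percent inhibition of biofilm viability.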
Numbers without * were called inactive.

O=C(NCCCc1ccccc1)C1CCC(CNc2c(N3CCCCC3)c(=O)c2=O)CC1 (centres undefined) was read as Biofilm kill mix 7.
O=C1C=C(O)c2cccc(O)c2C1=O was read as Biofilm kill mix 19.
For CCOc1ccc(-c2csc(Cn3c(CN4CCN(C)CC4)nc4ccccc4c3=O)n2)cc1 the results were Biofilm kill mix 19.
Cc1ccc(C(=O)c2cc3ccccc3o2)cc1[N+](=O)[O-] was read as Biofilm kill mix 13.
O=C(CSc1nc2ccsc2c(=O)n1CC1CCC(C(=O)O)CC1)c1ccc(Cl)cc1 (centres undefined) was read as Biofilm kill mix 15.
`COCCNC(=O)CN1CCC(NC(=O)c2ccco2)CC1` gave Biofilm kill mix 11.
`CC(C)(C)OC(=O)NCCc1nnc(SCc2cccc(Cl)c2)o1` gave Biofilm kill mix 19.
COc1ccc(C(=O)Oc2ccc[nH]c2=O)cc1 was read as Biofilm kill mix -8.
For OCC1CCCCN1C(=S)NCc1ccco1 (centres undefined) the results were Biofilm kill mix 6.
`CSc1cnn(Cc2ccccc2)c(=O)c1SCc1ccccc1` gave Biofilm kill mix 6.
`Cn1c2c(c(=O)n(C)c1=O)[C@@]1(C(=O)Nc3ccccc31)C(C#N)=C(N)O2` gave Biofilm kill mix 23.
`Cc1cccc(C(=O)c2c(N)sc3c2CCCC3)c1` gave Biofilm kill mix 11.
For COc1cccc(-c2nn(-c3ccccc3)cc2CN(C)C(C)c2ccncn2)c1 (centres undefined) the results were Biofilm kill mix 17.
Cc1cc2nc(-c3ccncc3)cc(C(F)(F)F)n2n1 was read as Biofilm kill mix 20.
Screening O=C(NC1CCCc2ccccc21)C12CC3CC(CC(O)(C3)C1)C2 (centres undefined) returned Biofilm kill mix 5.
O=S(=O)(Cc1ccc(Cl)cc1)C1CCCCC1O (centres undefined) was read as Biofilm kill mix 6.
Screening O=C(COC(=O)CC1CC2CCC1C2)Nc1c(F)cccc1F (centres undefined) returned Biofilm kill mix 11.
O=C1NC(=S)S/C1=C\c1coc2ccc(O)cc2c1=O was read as Biofilm kill mix 21.
`Cc1ccc(C)c(NC(=O)/C(C#N)=C/c2ccc(Sc3nncn3C)c([N+](=O)[O-])c2)c1` gave Biofilm kill mix 3.
O=C(c1cccc(C(F)(F)F)c1)N1CCc2c([nH]c3ccccc23)C1C(F)(F)F (centres undefined) was read as Biofilm kill mix 21.
`Cc1ccc(S(=O)(=O)Nc2n[nH]nc2C(=O)NC2CCCCC2)cc1` gave Biofilm kill mix 20.
`CCN(CC)c1ccc(/C=N/NC(=O)c2ccoc2C)c(O)c1` gave Biofilm kill mix 29.
Screening Nc1ccc(O)c2c1C(=O)c1ccccc1C2=O returned Biofilm kill mix 12.
`COc1ccc(/C(N)=N/OC(=O)CCc2ccccc2)cc1` gave Biofilm kill mix 16.
For CCOC(=O)c1cnn(-c2cc(C)cc(C)c2)c1N the results were Biofilm kill mix 14.
Cc1ccc(CN2CCN(Cc3ccc4cc(F)ccc4n3)CC2CCO)o1 (centres undefined) was read as Biofilm kill mix -6.
COc1ccc(C(=O)C2CCCN(Cc3cccn3-c3ccccn3)C2)c(C)c1 (centres undefined) was read as Biofilm kill mix 4.
For COc1ccc(OC)c(S(=O)(=O)N2CCC(C(=O)N3CCOCC3)CC2)c1 the results were Biofilm kill mix 16.
Screening O=C(NNC(=O)c1sccc1-n1cccc1)Nc1ccc(F)cc1 returned Biofilm kill mix 11.
For CCCn1c(N)c(Sc2ccc([N+](=O)[O-])cc2)c(=O)n(CCC)c1=O the results were Biofilm kill mix 2.
Oc1oc(-c2ccccc2)nc1/C=N/c1nccs1 was read as Biofilm kill mix 11.
Screening Cc1ccc(CN2CCNC(=O)C2CC(=O)NCCCn2cccn2)o1 (centres undefined) returned Biofilm kill mix 23.
`COc1ccc2nc(/N=C/c3c(C)[nH]n(-c4ccc(C)cc4C)c3=O)sc2c1` gave Biofilm kill mix -4.
For CN(C)C(=O)C(CCN1CCC(O)(c2ccc(Cl)cc2)CC1)(c1ccccc1)c1ccccc1 the results were Biofilm kill mix 16.
Screening CCCC(=O)Nc1ccc(C(=O)NNC(=S)NC(=O)c2ccc(Br)o2)cc1 returned Biofilm kill mix 15.
Screening Cc1ccc(SC(C)C(=O)N2CCC(C(N)=O)CC2)cc1 (centres undefined) returned Biofilm kill mix 26.
For Cc1cc(NC(=O)CCSc2nc(-c3ccco3)cc(C(F)(F)F)n2)n(-c2ccccc2)n1 the results were Biofilm kill mix 15.
COc1ccc(CNC(=O)/C=C/C(=O)O)cc1 was read as Biofilm kill mix 14.
Screening Cc1cccc(NS(=O)(=O)c2cc(C(=O)N3CCOCC3)ccc2Cl)c1 returned Biofilm kill mix 15.
Screening CC(C)c1ccc(N=C2N=C(N)c3ccccc32)cc1 returned Biofilm kill mix 10.
CCSc1nnc2nc3[nH]c4c(C)cccc4c3nn12 was read as Biofilm kill mix 17.
COc1ccc(C(=O)Nc2cccnc2Sc2ccc(Cl)cc2)cc1 was read as Biofilm kill mix 7.
For Cc1ccccc1C(=O)Nc1nnc(CC(=O)N/N=C/c2ccco2)s1 the results were Biofilm kill mix 14.
`O=C(/C(=C/O)N=Nc1ccccc1Cl)c1ccccc1` gave Biofilm kill mix 25.
For CCCc1cc(=O)n2[nH]c(NCc3ccc(OC)cc3)nc2n1 the results were Biofilm kill mix 15.
Screening COCCn1c(C)cc(C(=O)COc2ccc(C)nc2[N+](=O)[O-])c1C returned Biofilm kill mix 2.
For CN(/N=C/c1cccnc1)c1cnc2ccccc2n1 the results were Biofilm kill mix 5.
For N#Cc1cc2c(=O)n3ccccc3nc2n(-c2ccccc2Cl)c1=O the results were Biofilm kill mix 0.
Cc1c(CCOC(=O)C23CC4(C)CC(C)(CC(C)(C4)C2)C3)sc[n+]1CC(=O)c1ccccc1 was read as Biofilm kill mix 10.
COc1ccc(C)cc1S(=O)(=O)N1CCCCCC1 was read as Biofilm kill mix 25.
Cc1cccc2cc(CN(Cc3ccccc3)C(=S)NCCCN(C)C)c(=O)[nH]c12 was read as Biofilm kill mix -8.
`O=[N+]([O-])c1ccc(N/N=C/c2ccccc2)cc1` gave Biofilm kill mix 6.
For CCCCCCN1C=CC=C/C1=C\C=C(C#N)C#N the results were Biofilm kill mix 8.
CCN1CCN(c2ccc(NC(=O)c3ccc4c(c3)[nH]c(=O)n4Cc3ccc(F)cc3)cc2)CC1 was read as Biofilm kill mix 19.
O=C(/C=C/c1ccc(Cl)c([N+](=O)[O-])c1)Nc1ccc(N2CCCC2)c(Cl)c1 was read as Biofilm kill mix 13.
For CC1=NN(c2ccccc2)C(=O)C1N=Nc1ccc(C)cc1 (centres undefined) the results were Biofilm kill mix 2.
For O=C(NC(=S)Nc1ccc(S(=O)(=O)N2CCOCC2)cc1)c1ccccc1[N+](=O)[O-] the results were Biofilm kill mix -2.
Screening COC(=O)c1ccc(C(=O)NC(=S)Nc2nc3c(s2)CC(C)CC3)cc1 (centres undefined) returned Biofilm kill mix 22.
`COc1ccc(-c2nn(-c3ccccc3)cc2C(=O)Nc2nccs2)cc1OC` gave Biofilm kill mix -3.
For COc1cccc(/C=C/C(=O)NCCc2ccc(OC)c(OC)c2)c1 the results were Biofilm kill mix 11.
`NC(=NC(=O)c1ccc(OCC(F)(F)F)nc1)c1ccc(Cl)cc1` gave Biofilm kill mix 11.
For C#CC1(NC(=O)NCCCC)CCCCC1 the results were Biofilm kill mix 9.
COC(=O)c1noc(C)c1-c1ccnn1C(=O)c1ccc(C)cc1 was read as Biofilm kill mix 0.
`CSc1nc2nc3c(cc2c(=O)[nH]1)C(O)Oc1ccc(C)cc1-3` (centres undefined) gave Biofilm kill mix 2.
Screening O=C(CSc1ccc2nnc(CCNC(=O)c3ccccc3)n2n1)Nc1ccccc1F returned Biofilm kill mix 11.
Screening COc1ccc2ncc(S(=O)(=O)c3ccccc3)c(N3CCN(c4ccccc4)CC3)c2c1 returned Biofilm kill mix 4.
`Cc1nnc(Sc2cc(NCCO)c([N+](=O)[O-])c3nonc23)s1` gave Biofilm kill mix 9.
Cc1ccc(OCCOCCOc2cccc3cccnc23)c(Br)c1 was read as Biofilm kill mix 9.
`CC1(OC(=O)C2CCCC2)C(=O)C=C2C=C(c3ccsc3)N(CCCCO)C=C2C1=O` (centres undefined) gave Biofilm kill mix 7.
For COC(=O)C1C(=O)C=C(Nc2ccc(F)cc2F)CC1c1ccccc1 (centres undefined) the results were Biofilm kill mix 13.
For Cc1ccc(-c2cc(C(F)(F)F)c(C#N)c(SCC(=O)O)n2)cc1 the results were Biofilm kill mix 17.
CC1(C)C2CCC(C2)C1(C)NC(=O)CNC1CCCCC1 (centres undefined) was read as Biofilm kill mix 15.
Screening CCOC(=O)CCC(NC(=O)c1ccccc1C(=O)NC(CCC(=O)OCC)C(=O)OCC)C(=O)OCC (centres undefined) returned Biofilm kill mix 10.
Cc1nn(-c2ccccc2)c(C)c1C(=O)NCc1cccs1 was read as Biofilm kill mix -5.
CN(Cc1nc(C(c2ccccc2)c2ccccc2)no1)CC1COCCO1 (centres undefined) was read as Biofilm kill mix 14.
Screening COc1ccc(C2OC(=O)CC2C(=O)NCc2ccc(Cl)cc2)cc1OC (centres undefined) returned Biofilm kill mix 6.
N/C(=N\N=C\c1ccco1)SC1CC(=O)N(c2ccc(C(=O)O)cc2)C1=O (centres undefined) was read as Biofilm kill mix 14.
Screening CC(C)CN(CC(C)C)S(=O)(=O)N1CCC(C(=O)NCc2ccco2)CC1 returned Biofilm kill mix 13.
Screening COc1cccc(CN2CCN(Cc3ccc(O)c(OC)c3)CC2CCO)c1 (centres undefined) returned Biofilm kill mix 9.
For Cc1cccc(C)c1NC(=O)NCCCN1CCN(c2ccccc2)CC1 the results were Biofilm kill mix 25.
For COc1ccc([N+](=O)[O-])cc1NC(=O)c1ccco1 the results were Biofilm kill mix 16.
Screening COc1ccc(NS(=O)(=O)c2ccc(OC)c(NC(=O)CCC3CCCCC3)c2)cc1 returned Biofilm kill mix 14.
Screening c1coc(-c2ccnc(-n3cccc3)n2)c1 returned Biofilm kill mix 19.
CCCCOP(=O)(OCCCC)C(O)c1ccc(Br)cc1 (centres undefined) was read as Biofilm kill mix 16.
CCC(C)NCCOCCOc1ccc(Cl)c2ccccc12 (centres undefined) was read as Biofilm kill mix -31.
CC(C)C(=O)Nc1ccc(O)c(-c2csc(N)n2)c1 was read as Biofilm kill mix 13.
`CC(=O)Nc1nn(C)c2nc(C)cc(C)c12` gave Biofilm kill mix 8.
CC(=O)CC(=O)Nc1ccc2ccccc2c1 was read as Biofilm kill mix 9.
`Cc1ccc(NC(=O)c2c([N+](=O)[O-])c(C(C)(C)C)nn2C)cc1` gave Biofilm kill mix 2.
Screening CCCCNC(=O)CCCCC(=O)N/N=C/c1cccc(Cl)c1 returned Biofilm kill mix 20.
`CC(C)(C)NC(=O)COC(=O)c1cc(Cl)ccc1[N+](=O)[O-]` gave Biofilm kill mix 14.
`Cc1nc2c(sc3nc(N4CCOCC4)c4c(c32)CC(C)(C)OC4)c(-c2ccc(Cl)cc2)c1C(=O)O` gave Biofilm kill mix 35.
For Clc1ccc(-c2ncc3ccccn23)c(Cl)c1 the results were Biofilm kill mix 16.
Screening COc1ccc(NC(=S)N2CCc3ccccc3C2)cc1OC returned Biofilm kill mix 5.
Screening CCC(C)NC(=O)CSc1nc2scc(-c3ccccc3)c2c(=O)[nH]1 (centres undefined) returned Biofilm kill mix 19.
`CC/S(=N\S(=O)(=O)c1ccc(C)cc1)c1ccccc1` (centres undefined) gave Biofilm kill mix 17.
Screening Cc1cc(-c2ccccc2)nc(N(C)NC(=O)C(C)(C)C)c1S(C)(=O)=O returned Biofilm kill mix 14.
Screening O=C(NCCC1=CCCCC1)C(=O)NCc1ccccc1 returned Biofilm kill mix 7.
For COc1ccc(/C=C/C(=O)O)cc1Cl the results were Biofilm kill mix 17.
CC(=O)Nc1cccc(Oc2ncnc3scc(-c4ccccc4)c23)c1 was read as Biofilm kill mix 0.
Screening CC(C)c1nc(CNC(=O)CC2C(=O)NCCN2Cc2ccoc2)cs1 (centres undefined) returned Biofilm kill mix 5.

Of the compounds above, 11 contain a nitro group on carbon.
Cc1ccc(C(=O)c2cc3ccccc3o2)cc1[N+](=O)[O-] was read as Biofilm kill mix 13.
`Cc1ccc(C)c(NC(=O)/C(C#N)=C/c2ccc(Sc3nncn3C)c([N+](=O)[O-])c2)c1` gave Biofilm kill mix 3.
For CCCn1c(N)c(Sc2ccc([N+](=O)[O-])cc2)c(=O)n(CCC)c1=O the results were Biofilm kill mix 2.
Screening COCCn1c(C)cc(C(=O)COc2ccc(C)nc2[N+](=O)[O-])c1C returned Biofilm kill mix 2.
`O=[N+]([O-])c1ccc(N/N=C/c2ccccc2)cc1` gave Biofilm kill mix 6.
O=C(/C=C/c1ccc(Cl)c([N+](=O)[O-])c1)Nc1ccc(N2CCCC2)c(Cl)c1 was read as Biofilm kill mix 13.
For O=C(NC(=S)Nc1ccc(S(=O)(=O)N2CCOCC2)cc1)c1ccccc1[N+](=O)[O-] the results were Biofilm kill mix -2.
`Cc1nnc(Sc2cc(NCCO)c([N+](=O)[O-])c3nonc23)s1` gave Biofilm kill mix 9.
For COc1ccc([N+](=O)[O-])cc1NC(=O)c1ccco1 the results were Biofilm kill mix 16.
`Cc1ccc(NC(=O)c2c([N+](=O)[O-])c(C(C)(C)C)nn2C)cc1` gave Biofilm kill mix 2.
`CC(C)(C)NC(=O)COC(=O)c1cc(Cl)ccc1[N+](=O)[O-]` gave Biofilm kill mix 14.

An excerpt (hit frequency here may not be typical).
